KCNQ2 inh: KCNQ2 channel blockers in CHO-K1 cells – cell-based, FluxOR thallium flux, B-score, primary screen (AID 2156). B-score at 10 µM. O88943. 20 min; stronger effect = lower value; only compounds with negative scores are shown here; some inactives read as strong as hits. 1.1% of 310,000 active;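 active = fluorescence ratio B-score at most minus 3 library SDs, with starting brightness B-score within 2 library SDs, cut at about -5.5 in these data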
Target sequence (O88943 whole entry, looked up): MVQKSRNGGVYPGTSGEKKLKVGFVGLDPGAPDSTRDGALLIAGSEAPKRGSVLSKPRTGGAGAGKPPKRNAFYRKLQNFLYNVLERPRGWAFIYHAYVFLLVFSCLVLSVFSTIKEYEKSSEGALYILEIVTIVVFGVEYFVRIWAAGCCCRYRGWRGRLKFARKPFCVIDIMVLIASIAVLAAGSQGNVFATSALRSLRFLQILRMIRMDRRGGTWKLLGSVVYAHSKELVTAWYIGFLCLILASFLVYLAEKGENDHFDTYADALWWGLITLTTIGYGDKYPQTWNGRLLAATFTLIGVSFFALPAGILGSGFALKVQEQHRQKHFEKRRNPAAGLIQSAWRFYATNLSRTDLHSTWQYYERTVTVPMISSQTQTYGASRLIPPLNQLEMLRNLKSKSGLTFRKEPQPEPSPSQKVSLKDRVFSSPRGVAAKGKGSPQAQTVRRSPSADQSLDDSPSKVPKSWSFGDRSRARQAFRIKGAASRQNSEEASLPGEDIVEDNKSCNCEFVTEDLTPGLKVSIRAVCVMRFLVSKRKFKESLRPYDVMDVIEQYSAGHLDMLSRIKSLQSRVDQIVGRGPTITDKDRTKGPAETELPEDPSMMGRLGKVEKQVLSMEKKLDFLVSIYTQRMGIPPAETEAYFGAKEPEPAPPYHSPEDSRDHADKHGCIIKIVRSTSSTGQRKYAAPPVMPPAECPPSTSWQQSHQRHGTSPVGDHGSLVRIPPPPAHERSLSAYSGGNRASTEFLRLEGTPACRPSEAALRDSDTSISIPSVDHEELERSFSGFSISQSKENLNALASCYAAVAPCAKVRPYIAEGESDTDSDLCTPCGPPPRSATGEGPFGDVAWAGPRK
KCNQ2 inh baseline: further read-out of KCNQ2 inh, marked with its call; B-score; measured here: initial fluorescence intensity artifact check;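 brightness before thallium and not channel activity; 0 = typical well and far values either way flag optical interference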
Active calls of the source: *; i = inactive.

KCNQ2 inh baseline	KCNQ2 inh	Structure
2.3	i	Cc1ccc([C@@H]2[C@@H]3C(=O)N(c4ccccc4)C(=O)[C@@H]3[C@]3(C)C(=O)N(Cc4ccccc4)CC(=O)N23)o1
0.99	i	COc1ccc(C(=O)N2CCOC2CNC(=O)C(=O)NCc2ccco2)cc1 (configuration not stated)
1.9	i	CCOc1ccccc1OC(=O)CN1C(=O)c2ccccc2C1=O
0.05	i	O=C(NCc1cccnc1)Nc1ccc(Cl)cc1
-0.1	i	COc1ccc(N=c2sc3ccccc3n2C)cc1
-1.4	i	COc1ccc(CCNC(=O)C2CCN(C(=O)c3ccccc3C)CC2)cc1
0.56	i	c1ccc(N2CCN(c3nc4cc5c(cc4s3)OCO5)CC2)cc1
-0.85	i	CC(=O)NC1=NN(C(C)=O)C(c2ccccc2)S1 (configuration not stated)
2.3	i	O=C(Nc1cccc2c1CCCC2)c1ccccc1F
1.4	i	COc1ccccc1C(CC(=O)Nc1ccc(Cl)cc1)c1ccc(OC(C)C)cc1 (configuration not stated)

Single values from the results shown.
Under KCNQ2 inh baseline, COc1ccc(C(=O)N2CCOC2CNC(=O)C(=O)NCc2ccco2)cc1 (configuration not stated) has 0.99
Under KCNQ2 inh baseline, O=C(NCc1cccnc1)Nc1ccc(Cl)cc1 has 0.05
Under KCNQ2 inh baseline, COc1ccc(N=c2sc3ccccc3n2C)cc1 has -0.1

Ordered by number of heavy atoms (smallest number first): part of the list above
KCNQ2 inh baseline	KCNQ2 inh	Structure
-0.85	i	CC(=O)NC1=NN(C(C)=O)C(c2ccccc2)S1 (configuration not stated)
-0.1	i	COc1ccc(N=c2sc3ccccc3n2C)cc1
1.9	i	CCOc1ccccc1OC(=O)CN1C(=O)c2ccccc2C1=O

The listing continues.
KCNQ2 inh baseline	KCNQ2 inh	Structure
-0.57	i	Cc1ccccc1OCCCCn1cnc2ccccc21
1	i	O=C(CN1C(=O)NC2(CCOc3ccccc32)C1=O)Nc1cccc(Cl)c1 (configuration not stated)
0.04	i	CCOC(=O)C1=C(C)N(C)C(=O)NC1c1ccc2c(c1)OCO2 (configuration not stated)
0.57	i	CC(=O)Nc1ccc(NC(=S)NC(=O)C2CC2)cc1
2	i	C=CC[n+]1c(C)csc1Nc1cccc(Br)c1
-2	i	N#CC1=C(N)N(c2ccccc2)C(c2cccc([N+](=O)[O-])c2)C1(C#N)C#N (configuration not stated)
1.3	i	Cc1cc(C)c2c(CN3CCOCC3)cc(=O)oc2c1C
0.01	i	COc1cc(C(=O)NC(=S)Nc2cccc3nc(C)ccc23)cc(OC)c1OC
1.6	i	CC1CCC2C(=O)N(c3cccc(C(=O)Nc4ccc(F)cc4)c3)C(=O)C2C1 (configuration not stated)
-0.28	i	COc1ccc(NC(=O)C2Cc3ccccc3C(=O)O2)cc1 (configuration not stated)

Looked up one by one from the list above (six):
KCNQ2 inh baseline	KCNQ2 inh	Structure
0.57	i	CC(=O)Nc1ccc(NC(=S)NC(=O)C2CC2)cc1
1.6	i	CC1CCC2C(=O)N(c3cccc(C(=O)Nc4ccc(F)cc4)c3)C(=O)C2C1 (configuration not stated)
0.01	i	COc1cc(C(=O)NC(=S)Nc2cccc3nc(C)ccc23)cc(OC)c1OC
1.3	i	Cc1cc(C)c2c(CN3CCOCC3)cc(=O)oc2c1C
-0.28	i	COc1ccc(NC(=O)C2Cc3ccccc3C(=O)O2)cc1 (configuration not stated)
-2	i	N#CC1=C(N)N(c2ccccc2)C(c2cccc([N+](=O)[O-])c2)C1(C#N)C#N (configuration not stated)

Later entries
KCNQ2 inh baseline	KCNQ2 inh	Structure
-0.19	i	CC(C)(C)C(=O)Nc1nc2c(s1)CN(Cc1ccccc1)CC2
-1.4	i	O=S(=O)(c1cc(C(F)(F)F)ccc1Cl)N1CCCCCC1
0.45	i	O=C(Cc1ccccc1)NCC(=O)OCC(=O)c1ccc(F)cc1
1.1	i	CCc1c(C)c2ccc(OCC(=O)OC(C)C)c(C)c2oc1=O
1.2	i	CC(C)Oc1ccccc1/C=N/NC(=O)c1ccccc1Cl
-0.55	i	COc1cc(/C=C/C(=O)c2ccc3c(c2)OCCO3)cc(Br)c1OCC(=O)N(C)C
-1	i	CCCCC(=O)Nc1ccc(NC(=O)C2CC2)cn1
0.09	i	O=C1C(=O)N(Cc2cccnc2)C(c2ccccn2)/C1=C(/O)c1ccccc1 (configuration not stated)
-1.1	i	O=c1[nH]c(CN2CCN(Cc3ccccc3)CC2)nc2scc(-c3ccccc3)c12
2	i	c1ccc(C(Cc2nc(-c3cccnc3)no2)c2ccccc2)cc1
0.76	i	Cc1cc(C)n(-c2ccc(C(C)C)cc2)c(=O)c1C#N
0.65	i	CCC(=NCCN1CCNCC1)C1=C(O)CC(C)(C)CC1=O
-2.2	i	O=C(Nc1cc(Cl)ccc1N1CCOCC1)c1cccnc1Cl
0.57	i	Cn1c(SCCOc2ccccc2Cl)nnc1-c1cccs1
2.1	i	CCOC(=O)N1CCN(CCC(=O)Nc2ccccc2OC)CC1
-1.4	i	Cc1ccc(C(=O)NCc2ccco2)cc1
-0.26	i	CCCCn1c(=N)n(CC(=O)c2ccc([N+](=O)[O-])cc2)c2ccccc21
-1.1	i	O=C(COc1ccccc1Cl)NCCc1ccc2c(c1)OCCO2
-0.94	i	O=C(Nc1cccnc1)C1CC(=O)N(c2ccc(F)cc2)C1 (configuration not stated)
0.06	i	COc1ccc(OC)c(NC(=S)N2CCCC2)c1
0.51	i	CCOC(=O)N1CCC(NC(=O)c2cnn3c2NC(c2ccco2)CC3C(F)(F)F)CC1 (configuration not stated)
1.8	i	COC(=O)c1sc(NC(=O)CCCn2nc([N+](=O)[O-])cc2C)c(C(=O)OC)c1C
0.47	i	C/C(=N\NC(=S)NC(C)C)c1ccc2c(c1)OCCO2
-1.2	i	N#Cc1c2n(c3c(N)ncnc13)CCCCC2
-1.9	i	COc1ccc(-n2nc(C(=O)N(C)C)nc2-c2ccccc2)cc1
0.52	i	O=[N+]([O-])c1cccc(C(=Nc2ccccc2Cl)NO)c1
2.1	i	CCOc1cc(C=O)ccc1OCCCN1C(=O)NC(C)(C)C1=O
-1.4	i	Cc1cccc(CCN(C(=O)c2snc(C(N)=O)c2N)C(C(=O)NCC2CCCO2)c2ccc(F)cc2)c1 (configuration not stated)
3.5	i	CCOC(=O)CC(C#N)c1c[nH]c2ccccc12 (configuration not stated)
-1.6	i	c1ccc2c(c1)ncn2CCCCOc1ccc2c(c1)CCC2
0.07	i	O=C(COC(=O)Cc1ccc(F)cc1)NC1CCCC1
-0.02	i	O=C1CN(C(=O)c2cnccn2)c2ccccc2N1
-0.01	i	O=C(Nc1cccc2ccccc12)c1cn(-c2ccccc2)nc1-c1cccs1
2.1	i	C=CCn1c(SCC(=O)NCC(=O)OCC)nnc1-c1cccc(OC)c1
0.14	i	O=C(CSc1nnc(-c2ccccn2)n1Cc1ccccc1)NC1CCCC1
0.92	i	CC/C(=N\NC(=O)Nc1ccccc1)c1ccccc1
0.04	i	COCCNc1cc(C)nc2cc(-c3ccc(C)cc3)nn12
-0.25	i	Cc1cc(/C=C2/C(=O)N(C)C(=S)N2C)c(C)n1C1CC1
-0.09	i	NC(=Nc1ccc(N)cc1)C(N)=Nc1ccc(N)cc1
-0.26	i	CCOC(=O)c1c(C)[nH]c(C)c1S(=O)(=O)NC1CCN(C(=O)OCC)CC1
0.17	i	Cc1[nH]n(-c2ccccc2)c(=O)c1C(c1ccc(C(=O)O)cc1)c1c(C)[nH]n(-c2ccccc2)c1=O
-0.01	i	Cc1ccc(Cn2cc(C(=O)c3ccc(F)cc3)c(=O)c3cc4c(cc32)OCCO4)cc1
0.08	i	COCc1cc(=O)n2[nH]c(C)cc2n1
1.7	i	O=C(NC1CCCCC1)C(c1ccccc1)N(C(=O)c1csnn1)C1CCCC1 (configuration not stated)
0.32	i	CC1CN(C(=O)/C(C#N)=C2\N=C(NC(=O)c3ccc(F)cc3)c3ccccc32)CC(C)O1 (configuration not stated)
-1*	-7.5*	CCC1(CC)C(=O)C2=C3C1[C@H](C(=O)OC)CC(C(=O)OC)C[C@H]3n1c(=O)n(C)c(=O)n1[C@H]2C (some centres not stated)
0.99	i	COc1cc(S(=O)(=O)N2CCOCC2)ccc1NC(=O)COc1ccc(N(C)S(=O)(=O)c2ccc(C)cc2)cc1
0.06	i	CCc1cccc(C)c1NC(=O)Cn1c(NCCO)nc2ccccc21
-0.1	i	N#Cc1c(N)nc2c3c(sc(=N)c2c1N)NC(=O)CC3c1ccccc1Cl (configuration not stated)
-1.7	i	Cc1cccc(C)c1N1CCN(S(=O)(=O)c2ccc(F)cc2)CC1

Following part:
KCNQ2 inh baseline	KCNQ2 inh	Structure
1.1	i	CCO[C@H]1OC(C(=O)O)=C[C@@H](c2ccc(C(F)(F)F)cc2)[C@@H]1CCCO
0.03	i	CSc1ccccc1NC(=O)CN(C)CC(=O)Nc1cccc(Br)c1
0.3	i	COc1cc(C)c(S(=O)(=O)N2CCN=C2c2ccccc2)cc1C
-1.7	i	C/C(=C\C(=O)Nc1cc(C)on1)c1ccccc1
-0.22	i	CCOC(=O)N1CCN(C(=O)c2ccccc2CCc2ccccc2)CC1
0.33	i	O=C1CC(c2ccccc2)=Nc2ccccc2N1
-1.3	i	CCOC(=O)N1CCN(C(=O)C2CCC(=O)N(Cc3ccc(Cl)cc3)C2)CC1 (configuration not stated)
1.4	i	Cc1ccc(C)c(OCC(O)CN2CCc3ccccc3C2)c1C (configuration not stated)
-0.79	i	COc1cccc(CC(=O)Nc2nc3c(s2)C(=O)CC(C)(C)C3)c1
0.89	i	O=C(CCN1C(=O)C2CC=CCC2C1=O)Nc1cccc(Cl)c1 (configuration not stated)
-1.7	i	Cc1cccc2cc(CN(Cc3ccc(F)cc3)C(=O)N(C)C)c3nnnn3c12
-0.08	i	O=C(NC(=S)Nc1cccc(CO)c1)c1ccc(-c2ccccc2)cc1
0.05	i	CN1CCN(c2ccccc2NC(=O)COc2ccc(Br)cc2)CC1
-0.72	i	Cc1ccc(Cl)cc1NC(=O)CNC(=O)N1CC(=O)Nc2ccccc21
0.56*	-9.4*	CCOc1cc(CNCCc2ccc(S(N)(=O)=O)cc2)cc(Cl)c1OCc1ccccc1
0.43	i	CCOC(=O)c1cc2occc2n1CC(=O)NCCOC
-0.11	i	CCc1nc2ccccc2n1Cc1ccc(F)cc1
1.2	i	COc1ccc2cc(C3(C)NC(=O)N(CC(=O)NCCC4=CCCCC4)C3=O)ccc2c1 (configuration not stated)
-1	i	Cc1cc(C)n(Cc2cnc(N3CCOCC3)s2)n1
-0.69	i	Cc1nc(C)c(C(=O)C2=C(O)C(=O)N(CCN(C)C)C2c2ccco2)s1 (configuration not stated)
-0.7	i	CC(=O)N1CC(C)Sc2ccc(S(=O)(=O)NCc3ccc(Cl)cc3)cc21 (configuration not stated)
0.93	i	CCc1ccccc1NC(=O)CN(c1cccc(OC)c1)S(C)(=O)=O
0.3	i	Cc1ccc(C)c(Cn2nnc3c(=O)[nH]c(C(=O)Nc4ccc(F)cc4)nc32)c1
0.04	i	Fc1ccccc1Cn1cc(C(=S)N2CCOCC2)c2ccccc21
-0.75	i	O=C(Cn1ccc2ccccc2c1=O)NCCC(=O)Nc1cccc(Cl)c1
-0.06	i	CCCc1nnc(SCC(=O)N(CC)CC)n1CC1CCCO1 (configuration not stated)
0.42	i	O=S(=O)(c1ccc(Br)s1)N1CCN(c2ccc(F)cc2)CC1
0.66	i	CN(c1ccc(OCC(=O)OCC(=O)c2c(N)n(C)c(=O)n(C)c2=O)cc1)S(=O)(=O)c1ccc2ccccc2c1
0.74	i	CC(Sc1nnnn1-c1ccccc1)C(=O)Nc1ccc(Cl)cn1 (configuration not stated)
0.42	i	CC(C(=O)NC1CCCCC1)N1C(=O)C2C3C=CC(C3)C2C1=O (configuration not stated)

A section taken from the entries so far, for reference:
KCNQ2 inh baseline	KCNQ2 inh	Structure
-1.3	i	CCOC(=O)N1CCN(C(=O)C2CCC(=O)N(Cc3ccc(Cl)cc3)C2)CC1 (configuration not stated)
1.4	i	Cc1ccc(C)c(OCC(O)CN2CCc3ccccc3C2)c1C (configuration not stated)

(next part)
KCNQ2 inh baseline	KCNQ2 inh	Structure
-1.8	i	N=C(c1ccc([N+](=O)[O-])cc1)N1CCCCC1
1.5	i	Cc1cccc(N2CCN(C(=O)CCCOc3ccccc3)CC2)c1C
-0.23	i	Cc1cc(C)cc(N(C(C)C(=O)NCCC2=CCCCC2)S(C)(=O)=O)c1 (configuration not stated)
-0.72*	-6.7*	O=C(CCNc1cccc(F)c1)c1cccc([N+](=O)[O-])c1
0.1	i	S=C(NCc1ccc2[nH]c3c(c2c1)CCCC3)Nc1ccccc1
-0.14	i	COc1ccc(-c2noc3c2-c2nc(-c4ccccc4)sc2CC3)cc1
-1.7	i	CC1(NC(=S)NCCO)CCS(=O)(=O)C1 (configuration not stated)
-1.9	i	COc1ccc(C)cc1-n1nnnc1SC/C(O)=C(\C#N)c1nc2ccccc2[nH]1
0.65	i	Cc1ccc(NC(=O)CCS(=O)(=O)c2cccc3nonc23)c(Cl)c1
-0.51	i	CCN(CC(=O)NCc1cccs1)C(=O)c1cccc(S(=O)(=O)NCc2ccccc2)c1
0.75	i	COc1ccc(/C=C2\SC(=O)N(CCNC(=O)CCS(=O)(=O)c3ccc(C)cc3)C2=O)cc1
0.2	i	Cc1cc2c(=O)n(C)c(SCC(=O)Nc3ccccc3C)nc2s1
1.7	i	Fc1ccccc1CSc1nc2ncccc2[nH]1
-0.04	i	CCOc1cc(/C=N/Nc2nnc(C)n2N)ccc1OC(C)=O
-0.22	i	CC(O)[C@H]1CNC(=O)C(=O)N1CC1CCCCC1 (some centres not stated)
-0.04	i	COc1ccc(C(=O)O)cc1S(=O)(=O)N1CCCc2ccccc21
2.2	i	COC(=O)c1nn(-c2ccccc2)c(Sc2ccc(OC)cc2)c1/C=N/O
0.89	i	Cc1ccc(SCCC(=O)Nc2ccc(Br)c(C)c2)cc1
-0.58	i	CCOC(=O)N/N=C(C)/C=C/c1ccccc1
2	i	COC(=O)[C@H](C)NC(=O)c1cc2c(cn1)[nH]c1ccccc12
-1	i	Cc1ccc2c(C)cc(=S)[nH]c2c1

This is a subset, so the mix of outcomes need not match the whole.
